TRPML1 inh = blocks the human TRPML1 channel | AID 624415 | 390,000 tested, 0.02% active | Q9GZU1 | TRPML1-inducible cells, Ca2+ dye fluorescence, FDSS; stronger effect = lower value; inhibition of EC80 agonist-evoked calcium signal | activity change, negative = inhibition, % (no concentration beside the values); in the data active means activity change below about -50%; inconclusive means about -30% to -50%; inactive means above about -30%;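 also: stimulus is agonist 54-4 at its EC80 concentration; % is scaled to controls: 0 for no effect and ±100 for the full control effect; compound concentration not given in the record; the text of the record puts the active cut at -80%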
Target sequence (Q9GZU1 whole entry, looked up): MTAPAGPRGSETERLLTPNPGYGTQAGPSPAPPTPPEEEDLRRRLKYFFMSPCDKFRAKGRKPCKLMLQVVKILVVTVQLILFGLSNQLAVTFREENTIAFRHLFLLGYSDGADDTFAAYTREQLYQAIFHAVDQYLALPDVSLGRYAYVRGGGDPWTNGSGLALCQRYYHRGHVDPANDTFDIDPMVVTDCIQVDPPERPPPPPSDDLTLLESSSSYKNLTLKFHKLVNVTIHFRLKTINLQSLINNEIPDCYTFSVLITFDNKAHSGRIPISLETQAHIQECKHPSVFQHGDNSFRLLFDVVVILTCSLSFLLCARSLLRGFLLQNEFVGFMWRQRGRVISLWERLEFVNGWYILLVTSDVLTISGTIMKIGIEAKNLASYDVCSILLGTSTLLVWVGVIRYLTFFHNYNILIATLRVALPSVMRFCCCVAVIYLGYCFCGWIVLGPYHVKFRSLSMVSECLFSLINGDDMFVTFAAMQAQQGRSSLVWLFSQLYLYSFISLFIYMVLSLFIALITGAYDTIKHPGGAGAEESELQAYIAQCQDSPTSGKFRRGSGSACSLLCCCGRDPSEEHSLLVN
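Tet-induced TRPML1-DL cells loaded with Ca8 no-wash calcium dye were read kinetically on FDSS. Compound addition was followed by EC80 agonist 54-4 (4 uM final); inhibition was read over 110 s.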
PINK1 expr mod = modulators of PINK1 expression; PINK1 immunofluorescence, high-content cytometry, 24 h; Potency, µM (series often up to 76.6 µM), for the others: at the highest dose activation (PINK1 increase), most hits filed as activators; 410,000 tested, 0.2% active; AID 624263; active = well fitted activation curve with a large enough effect; inconclusive = small, poorly fitted or top-dose-only effect; inactive = flat fitted curve, though single readings scatter; cell line not stated here;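 also: potency is read from the fitted curve at half-maximal effect; % of control where 0% means no effect; nearly all actives have a fitted effect of over 65% in size; a mitochondrial uncoupler was the plate control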
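Readout is PINK1 immunofluorescence, quantified alongside mitochondrial, cell and nuclear markers by laser-scanning microplate cytometry. Cells from a stable line were exposed to compound titrations (5 concentrations) for 24 hours, with CCCP controls.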
TRPML1 agonist = human mucolipin-1 channel agonism | Q9GZU1 | TRPML1-expressing cells, Ca2+ dye fluorescence, FDSS; host cell line not named in the record; reference of the full effect not given here | activation, % (concentration not given with the values) | 410,000 tested, 0.12% active; in the data active = activation above about 50%; inconclusive = about 30% to 50%; inactive = below about 30%; also: 0% is about no effect; the text of the record puts the active cut at 80%
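TRPML1-DL cells, Tet-induced overnight (~16 h, 37 degrees C), loaded 45-90 min at room temperature with Ca8 no-wash calcium dye plus quencher. FDSS fluorescence: 10 s baseline, compound pin-transfer, 110 s agonist read, then EC80 54-4 (4uM final) and 110 s antagonist read.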
D2 potentiator = human D2 receptor positive allosteric modulation; DiscoveRx D2 beta-arrestin cells, luminescence, 90 min; 100% = 57 uM dopamine signal; 360,000 tested, 0.23% active; P14416; AID 624464; potentiation, % (test concentration not listed); active = potentiation of 50% or more; inconclusive = 30% to 50%; inactive = 30% or less;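 also: compound concentration not given in the record; tested on top of an EC20 dose of dopamine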
Target sequence (P14416 whole entry, looked up): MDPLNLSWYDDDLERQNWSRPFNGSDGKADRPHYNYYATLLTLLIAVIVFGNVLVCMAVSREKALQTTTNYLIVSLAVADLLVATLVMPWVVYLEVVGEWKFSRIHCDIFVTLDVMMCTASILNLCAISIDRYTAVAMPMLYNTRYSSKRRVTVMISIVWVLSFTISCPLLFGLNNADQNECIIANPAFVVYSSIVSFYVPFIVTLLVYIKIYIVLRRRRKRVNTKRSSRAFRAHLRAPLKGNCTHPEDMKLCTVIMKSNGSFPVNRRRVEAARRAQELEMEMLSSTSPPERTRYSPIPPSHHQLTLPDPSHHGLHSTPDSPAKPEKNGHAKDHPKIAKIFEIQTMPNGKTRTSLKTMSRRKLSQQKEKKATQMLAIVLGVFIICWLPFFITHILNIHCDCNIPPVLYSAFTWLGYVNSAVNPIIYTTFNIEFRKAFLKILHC
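D2 cells co-treated with compound plus 50 nM dopamine (EC20) for 90 min at 37 deg C to detect potentiation. Beta-arrestin recruitment was read as enzyme-fragment luminescence after 1 h at ambient temperature. Full response was set by 57 uM dopamine.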
D2 agonist = human D2 receptor agonism in beta-arrestin assay; P14416; DiscoveRx PathHunter D2 beta-arrestin, luminescence, 90 min; 100% = 57 uM dopamine signal; activation, % (concentration not given with the values); 360,000 tested, 0.084% active; AID 624465; in the data active = activation above about 40%; inconclusive = about 15% to 40%; inactive = below about 15%; also: compound concentration not given in the record; the text of the record calls up to 30% inactive
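DiscoveRx PathHunter D2 beta-arrestin cells (2,100/well) attached overnight, then compound-stimulated 90 min at 37 C in HBSS/10 mM HEPES/0.1% Tween-20 buffer; beta-galactosidase complementation read by luminescence after 1 h at ambient temperature. Dopamine 57 uM final (EC100) as control.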
Six1-Eya2 inh = Six1/Eya2 interaction inhibition; AID 651725; activity change, % (test concentration not listed); Q15475+O00167; AlphaScreen GST-Six1/His-Eya2 binding, biochemical; stronger effect = lower value; control for the full effect not named in the record; 360,000 tested, 0.56% active; in the data active = activity change below about -65%; inconclusive = about -30% to -65%; inactive = above about -30%; also: % is scaled to controls: 0 for no effect and ±100 for the full control effect; compound concentration not given in the record
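Six1/Eya2 binding was read as AlphaScreen signal after compounds were pinned into GST-Six1 plus His-tagged Eya2 (5X stock 250/500 nM) in pH 8.0 Tris/NaCl/TCEP buffer, beads added, then incubated 1 h, 37 C, dark.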
An asterisk follows results filed as active; ? = inconclusive; . = not tested or not shown; & = joins results of further samples; [ ] = dose if it differs, or a comment.

SMILES	TRPML1 inh	PINK1 expr mod	TRPML1 agonist	D2 potentiator	D2 agonist	Six1-Eya2 inh
Cc1ccc(C2(C(=O)N3CCC(n4nc(-c5ccccc5)oc4=O)CC3)CC2)cc1	40	0.3%	3.0	-9	1.3	-4
Cc1ccc2nc(N(Cc3cccnc3)C(=O)c3ccco3)sc2c1	36	11%	2.5	.	.	.
Cn1c(=O)c2cc(NC(=O)NCc3ccccc3)ccc2n1Cc1ccc(Cl)cc1	.	11%	-0.8	7	?	0
CCOc1ccccc1CNC(=O)c1cnc2c(-c3ccc(OCC)c(OCC)c3)c(C)nn2c1C	-5	-0.4%	1.6	.	.	.
Cc1cccc(C)c1NC(=O)CN(C)C(=O)CC1CC2CCC1C2 (configuration not stated)	57	1.6%	2.6	-7	0.9	1
CCN(CC)CCNC(=O)c1cc2ccccc2nc1Cl	42	1.7%	0.0	-4	-2.5	-21
O=C(Nc1ccccn1)N1CCOCC1	-4	-1.6%[38.3 µM]	-0.4	2	-0.9	-2
CC1=C(c2ccc(C)c(C)c2)S(=O)(=O)N(Cc2ccc(C(=O)NCc3cccc(C)c3)cc2)C1=O	6	-0.9%	0.2	.	.	.
N#Cc1ccc(-c2ccc3c(c2)OCO3)nc1SCC(=O)OCc1ccccc1	8	0.2%	2.9	15	-0.7	36
COc1ccc(CN2C=C3C(=O)C(C)(OC(=O)C4CCCC4)C(=O)C=C3C=C2c2ccsc2)cc1 (configuration not stated)	5	0.1%	-0.1	8	5.6	-23
CCOC(=O)c1c(C)[nH]c(C)c1S(=O)(=O)NCCN1CCN(c2cc(Cl)ccc2C)CC1	10	?	4.4	-18	7.2	-28
CCCCSCCCNC(=O)c1ccc(CS(=O)(=O)c2ccc(OC)cc2)o1	-4	-0.5%	1.9	-4	0.5	-6
COc1ccc(-n2c(N)c(Br)c(=O)[nH]c2=O)cc1	-9	0.2%[38.3 µM]	0.6	-1	-0.6	4
CN(Cc1cccs1)C(=O)CSc1nc(N)cc(N)n1	-6	-2.0%	0.5	1	-1.6	-3
COc1ccc(N2C(=O)CC(SC(C)C)C2=O)cc1 (configuration not stated)	-12	15%	0.7	-12	-2.4	9
Cc1ccc(S(=O)(=O)N2CCN(Cc3noc(CCC(=O)N4CCCCC4)n3)CC2)c(C)c1	-4	0.2%	1.6	.	.	.
CCOC(=O)c1ccc(NC(=O)N2CCOCC2)cc1	71	-0.9%	1.0	-1	2.1	6
Cc1cc(NC(=O)CC#N)n(-c2nc3ccccc3[nH]2)n1	-13	0.8%	-0.6	-7	-1.5	-7
CCO[C@H]1OC(C(=O)NCc2ccccc2)=C[C@@H](c2coc3ccccc3c2=O)[C@@H]1CCCO	-1	0.8%	-0.5	-6	-3.7	-3
Cc1ccc(CC(=O)N(C)CC(=O)Nc2ccc(N3CCOCC3)cc2)cc1C	-2	0.5%	0.1	1	-1.6	0
Nc1nnc(-c2cn(-c3ccccc3)nc2-c2ccc(Cl)cc2)o1	1	9.4%	2.9	-6	8.8	4
CCOc1ccc(-c2nonc2NC(=O)c2oc3cc(C)ccc3c2C)cc1	35	2.6%	1.4	.	.	.
CCOc1ccc(CCNC(=O)c2ccc(CS(=O)Cc3ccccc3Cl)o2)cc1 (configuration not stated)	-7	0.1%	-0.7	-17	-2.4	1
CC1(c2ccc(Cl)cc2)NC(=O)N(CC(=O)N2CCN(C(=O)c3cccs3)CC2)C1=O (configuration not stated)	-1	1.4%	0.9	-9	-3.6	4
CC(Nc1ccnc2cc(Cl)ccc12)c1ccc(S(N)(=O)=O)cc1 (configuration not stated)	-7	0.8%	0.0	9	3.5	0

Some of these compounds in order of the Six1-Eya2 inh value, falling.
SMILES	TRPML1 inh	PINK1 expr mod	D2 potentiator	D2 agonist	Six1-Eya2 inh
Cn1c(=O)c2cc(NC(=O)NCc3ccccc3)ccc2n1Cc1ccc(Cl)cc1	.	11%	7	?	0
CCN(CC)CCNC(=O)c1cc2ccccc2nc1Cl	42	1.7%	-4	-2.5	-21
CCOC(=O)c1c(C)[nH]c(C)c1S(=O)(=O)NCCN1CCN(c2cc(Cl)ccc2C)CC1	10	?	-18	7.2	-28

Next section.
SMILES	TRPML1 inh	PINK1 expr mod	TRPML1 agonist	D2 potentiator	D2 agonist	Six1-Eya2 inh
CCn1c(N2CCN(C(=O)/C=C/c3ccccc3)CC2)nc2ccccc21	17	4.8%	1.2	-5	-1.8	-3
COc1cccc(C(=O)Nc2nnc(-c3ccc(Cl)cc3)o2)c1	12	1.4%	-0.7	-1	-3.0	-10
Cc1cccc(NC(=O)Cc2ccc(-c3ccccc3)cc2)n1	-3	2.0%	-0.7	14	-2.1	0
Cc1noc(Cn2c(=O)c3cc4c(cc3n(CC(=O)Nc3cccc(Cl)c3)c2=O)OCO4)n1	12	0.6%	1.0	.	.	.
O=S1(=O)CC(N2CCSCC2)CN1Cc1cn(Cc2ccc(F)cc2)nn1 (configuration not stated)	.	0.9%	-0.2	.	.	2
O=C(O)C[C@H]1c2cc(F)ccc2S(=O)(=O)N1C1CCCCC1	12	1.3%	-1.0&-0.2	-24	0.9	7
CCCN(CC(=O)Nc1ccccc1C)C(=O)c1cc2ccccc2oc1=O	-5	0.7%	0.0	-3	0.3	-2
COc1ccc(CN(CC(=O)NCc2ccccc2)C(=O)c2csnn2)cc1	7	-0.5%	0.1	-3	-3.1	33
CCOc1cc(/C=N/Nc2cc(C)nc3ccc(C)cc23)ccc1O	.	2.3%	.	22	-1.0	-5
CCOC(=O)C1CCCN(c2c(C(=O)c3ccccc3)cnc3ccc(OC)cc23)C1 (configuration not stated)	11	3.2%	2.3	-12	-13	0
CC(=O)c1cccc(NC(=O)N2CCN(S(C)(=O)=O)CC2)c1	-4	8.1%[38.3 µM]	0.3	-8	-3.1	3
O=[N+]([O-])c1c(Nc2ccccc2O)ccc2nonc12	15	0.5%	-0.3	5	0.7	0
CCC(=O)Oc1ccc(C2Nc3ccccc3-c3nnc(SC)nc3O2)cc1 (configuration not stated)	1	-1.0%	-1.0	.	.	.
Cc1ccc(C2(C)NC(=O)N(CC(=O)c3ccc4c(c3)OCCO4)C2=O)cc1 (configuration not stated)	26	-1.0%	3.7	-2	-1.9	-5
CC(C)(C)OC(=O)N1CCC(NC(=O)c2[nH]cnc2C(=O)Nc2ccc(Cl)cc2)CC1	-13	-0.6%	-0.3	-16	-1.2	9
CCCN(CCC)CCCNC(=O)CCNS(=O)(=O)c1ccc(Br)cc1	4	6.6%	0.4	-8	4.2	2
CC1=C(c2ccc(C(C)C)cc2)S(=O)(=O)N=C1N1CCC(C(=O)Nc2ccc(C)cc2)CC1	-21	13%	1.9	.	.	.
O=C(Cn1c(=O)n(Cc2ccco2)c(=O)c2sc3ccccc3c21)Nc1ccccc1C(F)(F)F	7	3.9%	-0.2	.	.	.
CCCC1NC(=O)c2cccnc2-n2c1nc1cc(F)c(F)cc1c2=O (configuration not stated)	-13	1.9%	1.1	-1	1.5	9
CC(C)OC(=O)CSc1nnc(CNc2ccc(Cl)cc2)n1C	-8	3.2%	-0.1	0	0.1	-2
CCOc1ccc(CN2CCc3nc(Nc4ccc(OC)cc4OC)ncc3C2)cc1	-25	2.7%	1.6	.	.	.
Cc1ccc(CNC(=O)c2coc(=O)c3ccccc23)o1	19	2.1%	1.2	-5	-5.2	-7
O=C(COC(=O)c1ccc(F)cc1)Nc1ccc2c(c1)OCO2	16	9.1%	1.6	-10	-1.8	-10
CC(C)Cn1cc(NC(=O)Nc2cccc(C(F)(F)F)c2)c2ccccc2c1=O	7	?	4.4	.	.	.
O=S(=O)(Nc1cc(S(=O)(=O)N2CCOCC2)ccc1NCC1CCCO1)c1ccc(F)cc1 (configuration not stated)	10	-0.6%	-0.1	-1	3.5	-4
The listing continues:
SMILES	TRPML1 inh	PINK1 expr mod	TRPML1 agonist	D2 potentiator	D2 agonist	Six1-Eya2 inh
O=C(COc1ccc(S(=O)(=O)N2CCCC2)cc1Cl)NC1CC1	-2	-6.1%[38.3 µM]	-0.6	-8	0.6	3
Cc1ccc(NC(=O)Nc2cccc(C)n2)c(C)c1	13	3.2%	0.9	2	1.1	2
COc1ccc(-c2cc(C(F)(F)F)nc(SCCC(=O)Nc3cccc(O)c3)n2)cc1	16	?	3.9	.	.	.
CCOC(=O)c1c(C)c(C(=O)NCc2ccccc2OC)c(C)n1C	13	-0.3%[38.3 µM]	1.0	-9	-3.9	-4
CC(C)(C)c1ccccc1NC(=O)CN1C(=O)NC(Cc2ccccc2)C1=O (configuration not stated)	10	-0.8%	-0.5	-20	-7.4	3
COc1cc(/C=C/c2cc(C(=O)O)c3ccccc3n2)ccc1OC(F)F	0	-0.1%	-0.1	-10	-4.4	4
CCN(CCCNS(=O)(=O)c1ccc2c(c1)oc(=O)n2C)c1cccc(C)c1	11	1.0%	1.6	-3	-2.7	-25
O=C(NCc1ccc(Cl)cc1)c1cnc2sc(N3CCOCC3)nn2c1=O	-8	0.3%	-0.6	.	.	.
Cc1ccc(-c2nnc(-c3cc(C)on3)o2)cc1	-9	1.4%	0.8	-7	-2.8	2
Cc1ccc2nc(-c3ccncc3)cc(C(=O)Nc3ccc(OC(F)F)cc3)c2c1	65	4.2%	4.1	4	8.6	-2
CCC(C)NC(=O)CSc1nc2ccsc2c(=O)n1-c1ccc(OC)cc1 (configuration not stated)	-13	3.0%	1.0	-11	-1.2	1
CN(C(=O)CSc1nnc(Cc2cccs2)n1C1CC1)C1CCS(=O)(=O)C1 (configuration not stated)	-5	-2.1%	0.3	1	0.2	5
O=C(C1CC(=O)N(C2CCCC2)C1)N1CCN(c2ccccc2)CC1 (configuration not stated)	3	-1.2%	0.4	-18	-1.6	2
O=C(CCc1ccccc1)Nc1ccc(S(=O)(=O)N2CCCC2)cc1	30	0.4%	2.6	-7	4.8	3
CC1C(=O)N2CCCc3cc(NC(=O)c4ccccc4Br)cc1c32 (configuration not stated)	0	0.5%	-0.7	9	2.9	-8
CC1CCCCC1NC(=O)CN1C(=O)COc2ccccc21 (configuration not stated)	3	4.0%	0.3	-6	0.1	-15
O=C(Nc1c2c(nn1-c1cccc(Cl)c1)CS(=O)C2)c1ccc2c(c1)OCO2 (configuration not stated)	15	-2.1%	1.0	-15	-3.7	1
C=CCNc1ncnc2c1ncn2[C@H]1CN(Cc2cccs2)C[C@@H](CO)O1	.	1.2%	-0.4	-10	-4.1	2
CCc1nn2c(=O)cc(COC(=O)c3ccc(NC(=O)COc4ccccc4C)cc3)nc2s1	-16	4.8%	1.3	.	.	.
CC1CCN(c2c([N+](=O)[O-])nn(-c3ccc4c(c3)OCCO4)[n+]2[O-])CC1	-4	-0.9%	2.7	75*	9.9	?
CCN(CC)C(=O)c1cn(C)c2ccc(S(=O)(=O)N(CC)CC)cc2c1=O	-2	0.0%	-0.8	17	-1.2	-3
Cc1nc(CC(=O)N/N=C/c2ccc(OCC(=O)O)cc2)cs1	?	-0.1%	0.5	1	-3.1	19
CCC(Sc1nc(-c2ccccc2F)nc2c1Cc1c(CO)cnc(C)c1O2)C(=O)Nc1cc(C)ccc1C (configuration not stated)	-24	1.7%	0.5	.	.	.

Screening results (PubChem)

Outcome played no part in choosing rows; any-hit rate near 1%.
